Assay outcomes (PubChem)
HTT prom inh: Primary qHTS for Identification of Small Molecule Inhibitors of Huntingtin Promoter Activity; HEK293 HTT promoter firefly luciferase reporter (activity 0% = vehicle and -100% = no light), 24 h; Potency, µM (titrated, usually from 57.5 µM), without a hit: top-dose activity change, negative = inhibition, hits mostly inhibitors; 48,000 compounds, 0.93% hits; AID 1508623, 2021; active means well fitted inhibition curve with a large enough effect; inconclusive means small, poorly fitted or top-dose-only effect; inactive means no such curve, though single readings can be large or run the other way; further: nearly all actives have a fitted effect of over 50% in size
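Firefly luciferase readout (Dual-Glo, 10 min RT) after 24 h, 37 °C compound exposure (final up to 57.5 uM) of HEK293 reporter cells cultured 24 h beforehand; PTC124 at 50 uM final as control inhibitor; activity scaled vehicle 0%, zero RLU -100%.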
PMP22 txn prim: Cell-based coincidence reporter assay to measure PMP22 gene transcription in S16 Pmp22-F2sN cells - Primary screen. S16 Pmp22-F2sN Schwann cells (luciferase reporters placed in the Pmp22 gene), FLuc/NLuc coincidence luminescence, 24 h. 43,000 compounds, 2% hits. Potency, µM (series often up to 57.5 µM), for inactives: at the highest dose activity change, negative = inhibition, most hits filed as inhibitors. AID 1508649, 2021; active = clear falling dose curves in both reporters; inconclusive = both reporters move, but less clearly or upward; inactive = either reporter flat; the % is the NLuc reporter signal; further: on the % scale 0 is the no-effect control and ±100 the full control effect; some results filed as inactive show a strong effect at the top dose
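qHTS, 1536-well. Cells seeded, compounds added by pin tool, 24 h 37C. Nano-Glo reagent 1 (lysis/FLuc), 10 min RT, read; Stop&Glo, 10 min RT, read NLuc.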
An asterisk follows results filed as active; ? = inconclusive; nt = not tested or not shown; [ ] = remark or other dose. Potency means the concentration at half of the fitted maximal effect.

molecule	HTT prom inh	PMP22 txn prim
CNC1[C@H](O)C(O[C@@H]2C(O)C(O[C@H]3O[C@H]([C@@H](C)NC)CC[C@H]3N)[C@@H](N)C[C@H]2N)OC[C@]1(C)O (stereo partly drawn)	-0.7%	nt
CC1CCCCN1Cc1c(O)ccc2c(=O)c(-c3ccccc3Cl)c(C(F)(F)F)oc12 (stereo not drawn)	-4.4%	-23.4%
COC(=O)C1CCN(c2csc3ccc(Cl)cc3c2=O)CC1	11.7%	9.2%
O=c1ncn2nc(Sc3ccc(F)cc3F)ccc2c1-c1c(Cl)cccc1Cl	-21.8%	nt
COc1cc(NC(=O)c2noc3c2CC(C)CC3)c(OC)cc1Cl (stereo not drawn)	0.6%	-0.4%
COc1ccc(CCNC(=O)c2cc3c(=O)n(C)c4cc(Cl)ccc4c3s2)cc1OC	-7.0%	-1.0%
CCOc1ccc(NC(=O)CCCc2nc(-c3cccc(OC)c3)no2)cc1	2.2%	4.9%
Cc1cccc(CSc2cn(CC(=O)N3CCCCCC3)c3ccccc23)c1	5.8%	?
COc1ccc(NC(=O)C(c2ccc(OC)cc2)N(C)C(=O)Cc2cccs2)cc1 (stereo not drawn)	-22.2%	6.5%
CCC1CN(C(=O)N2CCC(C(=O)NCCC3=CCCCC3)CC2)c2cc(C)ccc2O1 (stereo not drawn)	-7.5%	?
CSc1ccc(CNC(=O)CN2C(=O)C3CCCCN3c3ccc(C(=O)N4CCCC4)cc32)cc1 (stereo not drawn)	-10.0%	-18.0%
CC(=O)Nc1ccccc1OCc1cc(=O)n2c(C)csc2n1	-1.0%	-20.0%
CC(=O)OC/C=C(C)/C=C/C=C(C)/C=C/C1=C(C)CCCC1(C)C	4.5%	nt
CCOC(=O)c1cc2c(=O)n3ccccc3nc2n(CCCOC)c1=NC(=O)C(C)(C)Oc1ccc(Cl)cc1	-4.0%	?
Cc1ccc(NC(=O)Cn2ncn3c(cc4ccccc43)c2=O)c(C)c1	-21.2%	-3.1%
CCC(C(=O)Nc1ccc(C(C)=O)cc1)n1c(C)c2cnn(-c3ccccc3)c(=O)c2c1C (stereo not drawn)	-11.7%	-40.7%
CCOC(=O)c1ccc(NC(=O)CCn2ccc(C)n2)cc1	-0.8%	3.1%
CCCCCOC(=O)c1ccc(Nc2nc(C(=O)OCC)nc3ccccc23)cc1	-10.7%	-16.9%
COc1ccc2c(c1)CC(C(=O)Nc1ccc(Br)c(C)c1)CO2 (stereo not drawn)	-29.2%	-3.1%
COC(=O)CSc1nc2sc3c(c2c(=O)n1-c1ccccc1)C(C)CCC3 (stereo not drawn)	-14.5%	3.5%
O=C(CSc1nc(=O)n(Cc2ccco2)c2c1CCC2)Nc1ccccc1C(F)(F)F	-1.7%	?
COc1cccc(CNC(=O)CSc2ncc(S(=O)(=O)c3ccc(C)c(Cl)c3)c(=O)[nH]2)c1	-15.0%	-30.7%
COc1cc(CN(C(=O)COc2ccc(Cl)c(C)c2)c2ccccn2)cc(OC)c1OC	?	?
CCN1CCSc2ccc(C(=O)NCc3ccc(F)cc3)cc21	-17.8%	-14.8%
CCOC(=O)c1ccc(NC(=O)CCC(=O)N2Cc3ccccc3Oc3ncccc32)cc1	-29.7%	8.0%
CCOc1ccccc1NC(=O)N1c2ccccc2Sc2ccccc21	?	?
Cc1ccccc1C(=O)Nc1ccccc1-c1nc(-c2ccccc2)no1	18.1%	-2.8%
CCOc1cc(C#N)c(NC(=O)c2ccc(OC)c(S(=O)(=O)N3CCCC3)c2)cc1OCC	-12.2%	-2.1%
Nc1nn(-c2ccccc2)nc1C(=O)OCc1c(F)cccc1Cl	40.3%[activator]	-7.5%
Cc1cc(C)cc(NC(=O)Cn2nnc(C(=O)NCc3ccco3)c2N)c1	-19.0%	-4.8%
CCCCc1nn2c(=O)cc(COC(=O)c3ccccc3NC(=O)c3cccs3)nc2s1	-13.9%	2.3%
CC(NC(=O)c1ccccc1)c1nc2ccccc2n1Cc1ccc(Cl)cc1 (stereo not drawn)	14.3%	-16.7%
COc1ccccc1NC(=O)C1=C(C)Nc2nc(SCc3ccccc3C)nn2C1CC(C)C (stereo not drawn)	-4.2%	?
CCOC(=O)c1c(C)oc2nc(C)nc(NCCc3ccc(OCC)c(OCC)c3)c12	-17.6%	?
Cc1ccc(S(=O)(=O)NCc2nc(-c3cccc(C)c3)no2)cc1	-20.6%	-38.7%
CCCOc1ccc(CNC(=O)C2CCCN(c3nc4c(C)cc(C)cc4s3)C2)cc1 (stereo not drawn)	18.4%	?
CCOc1ccc(-c2cccc(NS(=O)(=O)c3c(C)cc(C)cc3C)c2)nn1	?	5.1%
CN(CC(=O)NCc1ccccc1)S(=O)(=O)c1ccc2[nH]c3c(c2c1)CCCC3	-11.8%	-17.6%
COc1ccc(OC)c(-c2nnc3ccc(-c4ccc(OC)c(O[C@@H]5CCOC5)c4)nn23)c1	?	nt
O=C(CS(=O)(=O)c1cccc2nsnc12)N1CCN(c2cccc(Cl)c2)CC1	-15.7%	-24.4%
CN(CC(=O)Nc1ccc(Br)cc1)S(=O)(=O)c1cccc2nsnc12	?	-38.7%
O=C(Cn1cc(SCc2ccc(Cl)cc2)c2ccccc21)N1CCOCC1	2.9%	-4.1%
CCN(C(=O)CSc1nc2ccccc2nc1Cc1ccc(F)cc1)c1cccc(C)c1	-18.4%	-50.8%
O=C(c1cnn(-c2ccc(F)cc2)c1-n1cccc1)N1CCN(c2cccc(Cl)c2)CC1	-27.1%	?
Cc1cc(C)cc(OCC(=O)N(Cc2cccs2)c2ccc(Cl)cc2)c1	-14.5%	2.6%
CCn1c(CN2CCCCC2)nc2cc(NC(=O)c3cc(OC)c(OC)c(OC)c3)ccc21	-15.7%	-9.0%
COc1ccc(N2CCN(C(=O)CN3C(=O)CSc4c3c(C)nn4-c3ccccc3)CC2)cc1	-15.9%	-7.1%
CCOCCc1nnc(NC(=O)C(=O)c2cc(C)n(-c3ccc(C)cc3C)c2C)s1	-33.3%	?
COCCCNC(=O)CCCn1c(SCC(=O)c2ccc(F)cc2)nc2c(sc3ccccc32)c1=O	-12.1%	-31.3%
Cc1ccc(CSc2ncccc2C(=O)O)cc1	35.1%[activator]	10.2%
CCCCC(=O)Nc1ccccc1C(=O)OCc1cc(=O)n2nc(C3CCCCC3)sc2n1	-33.7%	2.0%
CC(=O)c1cc(-c2ccc(F)cc2)n(CCC(=O)NC2CCCCC2)c1C	-25.7%	-4.4%
Nc1c(C(=O)Nc2ccc(F)c(F)c2)sc2nc(-c3ccncc3)ccc12	14.4%	-2.7%
O=C(CSc1nncn2c1cc1occc12)Nc1ccc(F)c(Cl)c1	-4.5%	-26.0%
COC(=O)c1ccc(NC(=O)CSc2nc3c(c(=O)n(C)c(=O)n3C)n2Cc2ccccc2)cc1	-5.3%	-16.6%
COc1ccc(N2CCN(C(=O)c3oc4ccccc4c3NC(=O)c3ccccc3OC)CC2)cc1	?	14.9%

The results go on.
molecule	HTT prom inh	PMP22 txn prim
O=C(Nc1ccc2nc(SCC(=O)N3CCc4ccccc43)sc2c1)c1ccccc1	-14.6%	-21.5%
CC(C)(C)C(=O)OC1=CN(Cc2ccccc2)S(=O)(=O)c2ccccc21	-14.0%	-31.2%
O=C(Nc1ccccc1Cl)c1cc(S(=O)(=O)N2CCC3(CC2)OCCO3)ccc1F	?	-0.1%
Cc1ccc(CN2CCC(CNC(=O)c3cnn(-c4ccc(C)cc4)c3C3CCN(C(=O)OC(C)(C)C)CC3)CC2)cc1	?	?
Cc1ccc(NC(=O)CCNS(=O)(=O)c2ccc(Br)s2)cc1	-10.7%	-4.4%
COC(=O)c1sccc1S(=O)(=O)N(CC(=O)NCc1ccccc1)c1ccc(C)cc1	-19.9%	-149.1%
CCOC(=O)c1ccccc1NC(=O)c1sc2nc3n(c(=O)c2c1C)CCCCC3	-11.0%	-11.5%
Cc1ccc(CNC(=O)c2sc3nc4n(c(=O)c3c2C)CCCCC4)cc1	-2.7%	-33.7%

Complete entries, looked up by structure:
COC(=O)c1sccc1S(=O)(=O)N(CC(=O)NCc1ccccc1)c1ccc(C)cc1 as listed: HTT prom inh = -19.9%; PMP22 txn prim = -149.1%
Cc1ccc(CN2CCC(CNC(=O)c3cnn(-c4ccc(C)cc4)c3C3CCN(C(=O)OC(C)(C)C)CC3)CC2)cc1 as listed: HTT prom inh = ?; PMP22 txn prim = ?

The listing continues:
molecule	HTT prom inh	PMP22 txn prim
COc1cccc(CNCc2c(C(=O)O)c(C)n(Cc3ccc(F)cc3Cl)c2C)c1OC	-12.5%	-31.4%
CCOc1ccc(NC(=O)CC2C(=O)N(c3ccccc3)C(=O)N2C2CCCC2)cc1 (stereo not drawn)	-16.8%	?
O=C(Nc1nc(-c2ccccc2)ns1)c1ccc(Cl)cc1	-21.8%	1.2%
CCCN(CCC)C(=O)Cn1c(=O)n(-c2cccc(OC)c2)c(=O)c2c(C)c(C(=O)N(C)C)sc21	3.9%	-2.4%
Cc1ccccc1-c1noc(C(C)NC(=O)c2ccco2)n1 (stereo not drawn)	-10.5%	13.0%
CCOc1ccc(-c2nnc(SCC(=O)c3ccccc3)n2-c2ccccc2)cc1	-5.8%	-0.8%
Cc1cc(C)cc(NC(c2nnc(-c3cccc(F)c3)o2)c2ccc(F)cc2Cl)c1 (stereo not drawn)	-22.2%	-29.9%
CCCN1CCN(CCCNC(=O)c2cc3c(s2)-c2c(C)cccc2OC3)CC1	-27.8%	?

Of the compounds above, three contain bromine.
molecule	HTT prom inh	PMP22 txn prim
COc1ccc2c(c1)CC(C(=O)Nc1ccc(Br)c(C)c1)CO2 (stereo not drawn)	-29.2%	-3.1%
CN(CC(=O)Nc1ccc(Br)cc1)S(=O)(=O)c1cccc2nsnc12	?	-38.7%
Cc1ccc(NC(=O)CCNS(=O)(=O)c2ccc(Br)s2)cc1	-10.7%	-4.4%

Following part
molecule	HTT prom inh	PMP22 txn prim
O=C(Nc1ccccc1C(=O)OCc1cc(=O)n2ccsc2n1)c1ccccc1Cl	5.6%	-8.0%
C=Cc1c(C)c2cc3[nH]c(cc4nc(cc5nc(cc1[nH]2)C(C)=C5CCC(=O)O)C(CCC(=O)O)=C4C)c(C)c3C=C	1.2%	nt
CCOC(=O)c1ccc(NC(=O)Cn2c(=O)cc(C)c3c(C)nn(-c4cccc(F)c4)c32)cc1	-8.8%	?
Fc1ccc(Nc2nc(SCc3cccc(F)c3)nc3ccccc23)cc1	?	?
O=C(NCc1cccc(Br)c1)c1ccc(NC(=O)N2CCCCc3ccccc32)cc1	-19.5%	?
COc1ccc(-c2nc(C)c(CCNC(=O)c3ccccc3Br)s2)cc1OC	8.5%	?
Cc1ccc(-c2nc(C)c(CCNC(=O)C(=O)Nc3ccc(C)c(Cl)c3)s2)cc1	7.9%	-40.4%
Cc1cc(C)cc(NC(=O)CCn2cnc3ccccc3c2=O)c1	-17.4%	3.9%
CC1CCN(C(=O)Cn2cc(SCC(=O)Nc3ccccc3C(F)(F)F)c3ccccc32)CC1	?	?
CCOc1ccc2nc(N3CCN(C(=O)c4ccc(S(=O)(=O)CC)cc4)CC3)sc2c1	?	-25.7%
COc1ccccc1N1CCN(c2ccc(NC(=O)c3ccc(C)cc3)cc2C(=O)O)CC1	-19.8%	-18.7%
CCCc1ccc(-c2ccc(C(=O)Oc3ccc(OCC)cc3)cc2)nc1	2.1%	3.3%
COc1ccc(CNC(=O)CN2C(=O)COc3ccc(S(=O)(=O)Nc4ccccc4)cc32)cc1	-16.7%	-21.7%
CCN(CC)S(=O)(=O)c1ccc(NC(=O)Cn2ncc3c([nH]c4ccccc43)c2=O)cc1	-6.7%	4.6%
O=C(Cc1ccccc1)Nc1sc2c(c1C(=O)Nc1ccc(Cl)cc1)CCCC2	?	-64.1%
O=c1c(NCc2cccs2)nccn1-c1ccc(F)cc1	41.0%[activator]	-14.7%
CCNc1nc(N)nc(Oc2ccc(OCC(=O)OC)nn2)n1	-5.3%	-5.8%
Cc1nn(-c2nc(-c3ccc(F)cc3)cc(C(F)(F)F)n2)c(C)c1Cl	-28.0%	?
COc1ccc(C(=O)NCC(c2ccc3c(c2)OCO3)N2CCOCC2)cc1OC (stereo not drawn)	-12.6%	?
Cc1ccc(CCNC(=O)c2ccc3c(c2)c(C)c(C)n3Cc2ccccc2)cc1	-10.9%	?
Cc1ccc(C(C)C)c(OCC(=O)Nc2ccc(O)c(-c3nc4cc(Cl)ccc4o3)c2)c1	0.4%	-44.9%
CCOc1ccc(C2c3c(oc4ccccc4c3=O)C(=O)N2Cc2ccc3c(c2)OCO3)cc1 (stereo not drawn)	-7.7%	3.9%
Cc1ccc(-n2c3c(c(=O)[nH]c2=O)C(NC(=O)c2ccccc2C)(C(F)(F)F)C(=O)N3)cc1 (stereo not drawn)	-6.7%	2.9%
COc1cccc(NC(=O)CN2C(=O)COc3ccc(S(=O)(=O)N4CCCCCC4)cc32)c1	-18.1%	0.5%

Not a hit list. About 2.4% of those tested had a hit in this group.
